Screening data deposited in PubChem by National Center for Advancing Translational Sciences (NCATS).
Cruzain noTriton = cruzain (T. cruzi) inhibition without detergent. P25779. purified cruzain, Z-FR-AMC fluorescence, no detergent. Potency, µM, for the others: max response, negative = inhibition, actives largely listed as inhibitors. 2.3% of 200,000 active. AID 1476; active = well fitted curve in the direction sought with a large enough effect; inconclusive = small, poorly fitted or top-dose-only effect, or another doubt; inactive = no such curve, though single readings can be large; an effect the other way counts as inactive or inconclusive;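 note: plate controls were enzyme without inhibitor for no effect and buffer without enzyme for full effect; nearly all actives have a fitted effect of over 40% in size; top concentration of the series not given in the record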
Target sequence (P25779 123-467 limits assumed): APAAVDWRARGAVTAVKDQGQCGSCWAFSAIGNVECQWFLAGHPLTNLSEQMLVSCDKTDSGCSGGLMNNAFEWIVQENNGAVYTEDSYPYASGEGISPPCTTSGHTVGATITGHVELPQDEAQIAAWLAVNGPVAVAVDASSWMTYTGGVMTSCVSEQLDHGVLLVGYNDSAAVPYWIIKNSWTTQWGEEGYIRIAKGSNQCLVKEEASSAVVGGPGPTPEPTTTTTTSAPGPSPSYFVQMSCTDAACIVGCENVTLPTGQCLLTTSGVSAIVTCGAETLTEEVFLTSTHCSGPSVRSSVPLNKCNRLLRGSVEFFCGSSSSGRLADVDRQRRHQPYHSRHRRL
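Detergent-free condition (0.00005% Triton X-100) in acetate buffer pH 5.5 with DTT. 1.5 nM enzyme and compound were pre-mixed 15 min, then 2 uM Z-FR-AMC substrate added; reaction progress from fluorescence change between first and third reads (60 s).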
SARS PLpro yeast = SARS-CoV PLP inhibition in yeast; S. cerevisiae expressing SARS-CoV PLpro, growth rescue; control for the full effect not named in the record; Potency, µM (highest dose often 32.9 µM), inactives show at the top dose activity, positive = growth rescue; 0.19% of 330,000 active; note: 0% is about no effect; nearly all actives have a fitted effect of over 55% in size; growth read by luminescence after 48 h
NS1 function inh = influenza NS1 inhibition. S. cerevisiae slowed by influenza A NS1, growth recovery by OD600. Potency, µM (series often up to 46.1 µM), for inactives: at the top dose activity, positive = more growth. 0.4% of 270,000 active. AID 2326; note: actives are rising curves; nearly all actives have a fitted effect of over 50% in size
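Recovery from NS1-induced slow growth read by OD600 in budding yeast switched to galactose assay medium (pH 6.0, -URA) at 1:100 dilution. Compound 23 nl per well; the matching strain lacking NS1 serves as control.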
RE007 growth inh = less growth of the S. pombe RE007 Vpr strain | S. pombe RE007 Vpr strain, BacTiter-Glo ATP luminescence, 24 h; control for the full effect not named in the record | Potency, µM (doses to about 92.2 µM), for inactives: at the highest dose activity change, negative = less growth | 0.21% of 360,000 active | AID 651644; active = well fitted falling curve with a large enough effect; inconclusive = small, poorly fitted or top-dose-only effect; inactive = no such curve, though single readings can be large or run the other way;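 note: % is set by controls: 0 for no effect and ±100 for the full control effect; nearly all actives have a fitted effect of over 50% in size; the assay follows cell death caused by Vpr and the record does not say whether a fall means rescue or toxicity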
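Fission yeast strain RE007, carrying one chromosomally integrated HIV-1 vpr copy, was seeded at OD 0.01 in PMG+AL medium with 23 nL pinned compound. After 24 h at 30 °C and 99% humidity, viability was read by BacTiter-Glo luminescence.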
StopGo reporter = FMDV 2A StopGo reporter, luciferase signal | 1.2% of 410,000 active | human cells with a luciferase reporter of 2A StopGo recoding; control for the full effect not named in the record | Potency, µM (series often up to 57.9 µM), inactives show top-dose signal change, negative = less light; active = well fitted falling curve with a large enough effect; inconclusive = small, poorly fitted or top-dose-only effect; inactive = no such curve, though single readings can be large or run the other way; tested in HEK293T cells; note: % is set by controls: 0 for no effect and ±100 for the full control effect; nearly all actives have a fitted effect of over 45% in size; luciferase light after 4 h
Marburg entry inh = blocks Marburg virus binding to or entry into cells. Marburg virus pseudotyped entry inhibition, cell reporter; control for the full effect not named in the record; about a third of the inactives were read at about 46 µM. Potency, µM (series often up to 37.8 µM), inactives show at the highest dose activity change, negative = inhibition, hits mostly inhibitors. 1.8% of 300,000 active; active = well fitted inhibition curve with a large enough effect; inconclusive = small, poorly fitted or top-dose-only effect, or effect the other way; inactive = flat fitted curve, though single readings scatter; tested in HEK293 cells; about a fifth of its hits are not listed in these tables; note: % is set by controls: 0 for no effect and ±100 for the full control effect; luciferase read-out
Lassa entry inh = Lassa virus entry inhibition; Lassa virus pseudotype entry inhibition, cell reporter; control for the full effect not named in the record; 1.2% of 300,000 active; Potency, µM (doses to about 37.9 µM), for the others: at the highest dose activity change, negative = inhibition, most hits filed as inhibitors; AID 540256; active means well fitted inhibition curve with a large enough effect; inconclusive means small, poorly fitted or top-dose-only effect, or effect the other way; inactive means flat fitted curve, though single readings scatter; tested in HEK293 cells; note: % is set by controls: 0 for no effect and ±100 for the full control effect; nearly all actives have a fitted effect of over 50% in size; luciferase read-out
Cruzain Triton = cruzain (T. cruzi) inhibition with detergent | purified cruzain, Z-FR-AMC fluorescence, 0.01% Triton | 0.43% of 200,000 active | Potency, µM, without a hit: max response, negative = inhibition, most hits filed as inhibitors | P25779 | AID 1478; active = well fitted curve in the direction sought with a large enough effect; inconclusive = small, poorly fitted or top-dose-only effect, or another doubt; inactive = no such curve, though single readings can be large; an effect the other way counts as inactive or inconclusive;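 note: plate controls were neutral wells for no effect and buffer without enzyme for full effect; nearly all actives have a fitted effect of over 40% in size; top concentration of the series not given in the record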
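Compounds were screened in titration against cruzain (1.5 nM) with 0.01% Triton X-100 to counter colloidal aggregation. Activity was the AMC fluorescence increase over 60 s after adding 2 uM Z-FR-AMC at pH 5.5.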
* = called active by the depositor; ? = inconclusive; · = no result given; & = joins results of further samples; [ ] = dose if it differs, or a comment. Unless noted, calls come from the whole dose curve; as a rule, active means well fitted rising curve with a large enough effect; inconclusive means small, poorly fitted or top-dose-only effect; inactive means no such curve, though single readings can be large or run the other way. Potency is the fitted concentration of half-maximal effect. The order is random, and some 4.5% of all compounds hit somewhere here.

no.	Structure	Cruzain noTriton	SARS PLpro yeast	NS1 function inh	RE007 growth inh	StopGo reporter	Marburg entry inh	Lassa entry inh	Cruzain Triton
1	CCN(CC)CCN1C(=O)C(=O)/C(=C(/O)c2ccc3c(c2)CC(C)O3)C1c1ccc(OC)cc1 (stereo not drawn)	·	0%	3%	-8%	-16%	-23%[46.1 µM]	-17%[46.1 µM]	·
2	COc1cc(/C=N/Nc2nncn2N)ccc1OCc1c(C)no[n+]1[O-]	·	-1%	1%	-16%	7%	-1%	·	·
3	Cc1ccc2cn[nH]c2c1N	·	0%	·	12%	-5%	25%[46.1 µM]	9%[46.1 µM]	·
4	CCc1c(C)nc(N2CCN(Cc3ccc4c(c3)OCO4)CC2)[nH]c1=O	·	-1%	-1%	2%	-4%	·	·	·
5	FC(F)(F)c1nnc2ccc(Cl)nn12	·	1%	6%	7%	11%	-11%[46.1 µM]	39%[46.1 µM]	·
6	COc1cc(NC(=O)c2nc(-c3ccncc3)no2)cc(OC)c1OC	-12%	·	·	·	-14%	·	5%[46.1 µM]	-0.7%
7	CCCN1C(=O)C(Cc2nc3ccccc3c(=O)n2-c2ccccc2)c2cc(C)ccc21 (stereo not drawn)	20%&-4%	-46%	-5%	7%	?	3%[46.1 µM]	-9%[46.1 µM]	-9.2%&-7.5%
8	CCCCOc1cccc(C(=O)N(Cc2cccs2)C2CCS(=O)(=O)C2)c1 (stereo not drawn)	?	4%	-8%	1%	-28%	?	?	-0.1%
9	COc1ccccc1/C=N\Nc1cn[nH]c(=O)c1Cl	·	-1%	·	-12%	-8%	-24%[46.1 µM]	2%	·
10	CCn1c(CNc2ccc(F)cc2)nnc1SCC(=O)OC1CCCCC1	2%	-2%	-58%	-9%	·	-22%	-5%	-3.5%
11	O=C1CCCN2N=C(SCC(=O)Nc3ccc(F)cc3F)SC2=N1	·	0%	-11%	13%	14%	18%[46.1 µM]	-9%[46.1 µM]	·
12	O=C(CN1C(=O)NC2(CCCCC2)C1=O)N1CCN(S(=O)(=O)c2ccccc2)CC1	·	1%	·	-18%	15%	-2%[46.1 µM]	16%[46.1 µM]	·
13	CN(Cc1cccc(F)c1)C(=O)CSc1nnnn1C1CC1	·	-1%	·	0%	10%	17%[46.1 µM]	6%	·
14	Cc1ccc2c(CNCc3cccc(Cl)c3)c(C(=O)O)n(Cc3ccc(F)cc3Cl)c2c1	-10%	·	·	·	-1%	·	12%[46.1 µM]	-1.9%
15	CCC1(C)Cc2c(sc3nnn(CC(=O)Nc4ccc(C)cc4)c(=O)c23)CO1 (stereo not drawn)	-11%	7%	21%	-5%	-24%	3%	?	-4.2%
16	Cc1cccc(NS(=O)(=O)c2nnc(NC(=O)c3cccc(C)c3)s2)c1	-5%	6%	3%	-9%	42%&34%[activator]	·	-2%[46.1 µM]	-1.7%
17	COc1ccc(C(c2nnnn2Cc2ccccc2)N2CCN(C(=O)c3ccco3)CC2)cc1 (stereo not drawn)	?	-2%	-8%	5%	-8%	8%&0%	?	-3.3%
18	CC(=O)OC1COC(OC(C)=O)CO1 (stereo not drawn)	·	·	·	8%	8%	?	21%[46.1 µM]	·
19	CCOC(=O)C1=C(c2ccccc2)NC(=O)NC1c1ccc(O)c(OCC)c1 (stereo not drawn)	·	1%	1%	1%	-24%	9%[46.1 µM]	-14%[46.1 µM]	·
20	COc1cc(/C=C(\NC(C)=O)C(=O)NC(C)(C)CC(C)(C)C)ccc1OC(C)=O	18%	10%	-1%	-5%	6%	-1%	?	-1.6%

Complete entries from above. Order of screens: Cruzain noTriton	SARS PLpro yeast	NS1 function inh	RE007 growth inh	StopGo reporter	Marburg entry inh	Lassa entry inh	Cruzain Triton
Record of Cc1cccc(NS(=O)(=O)c2nnc(NC(=O)c3cccc(C)c3)s2)c1 → -5%	6%	3%	-9%	42%&34%[activator]	·	-2%[46.1 µM]	-1.7%
Record of Cc1ccc2c(CNCc3cccc(Cl)c3)c(C(=O)O)n(Cc3ccc(F)cc3Cl)c2c1 → -10%	·	·	·	-1%	·	12%[46.1 µM]	-1.9%
Record of CCOC(=O)C1=C(c2ccccc2)NC(=O)NC1c1ccc(O)c(OCC)c1 (stereo not drawn) → ·	1%	1%	1%	-24%	9%[46.1 µM]	-14%[46.1 µM]	·

Next entries follow:
no.	Structure	Cruzain noTriton	SARS PLpro yeast	NS1 function inh	RE007 growth inh	StopGo reporter	Marburg entry inh	Lassa entry inh	Cruzain Triton
21	c1ccc(OCc2nn3c(Cn4cnc5ccccc54)nnc3s2)cc1	-9%	0%	-91%	-15%	?	-23%	2%	0.1%
22	COc1ccc(N2C(=O)CCC2(C#N)c2ccc(OC)cc2)cc1 (stereo not drawn)	3%	2%	-16%	-8%	-12%	-17%	-25%	-4.2%
23	O=C(COC(=O)c1ccco1)Nc1ccc2c(c1)OCO2	-8%	-1%	3%	-8%	8%	21%	-1%	-0.4%
24	CC(=O)Nc1ccc(Oc2ncccn2)c(Cl)c1	4%	-12%	5%	4%	-3%	22%	0%	6.8%
25	Cc1ccc(C(=O)CN(Cc2ccccc2)C2=NCCS2)cc1	-4%	22%	-10%	4%	-18%	?	5%	2.8%
26	Cc1cc(N/N=C/c2ccccc2Br)nc2ccccc12	-8%	-46%	-2%	-10%	20%	?	0%	-20%
27	O=C(Nc1ccc2ccccc2c1[N+](=O)[O-])c1ccccc1	·	·	·	-25%	-2%	?	?	·
28	Cc1cc(C)n2nc(CCc3nc4nc(C)cc(C)n4n3)nc2n1	-5%	0%	8%	·	·	·	·	2.7%
29	CCC1CCCCN1C(=O)Cn1c(=O)oc2ccccc21 (stereo not drawn)	4%	-1%	-3%	6%	-2%	11%[46.1 µM]	-5%	4.0%
30	COc1ccc(/C=N/NC(=S)NC2CCS(=O)(=O)C2)cc1OC (stereo not drawn)	-8%	-3%	16%	8%	·	1%	-5%	-8.2%
31	CCOC(=O)N1CCC(NC(=O)Cn2ncc3c4ccccc4n(C)c3c2=O)CC1	14%	2%	18%	-3%	-19%	7%&7%	10%	-0.2%
32	O=C(NCCCl)Nc1cccnc1Cl	·	-1%	0%	6%	-20%	0%[46.1 µM]	3%[46.1 µM]	·
33	Cc1cccc(NCN2C(=O)c3ccncc3C2=O)n1	4%	-18%	-3%	9%	1%	13%	-6%	-0.5%
34	CS(=O)(=O)N1CCC(C(=O)Nc2ccc(F)cc2F)CC1	-3%	19%	-1%	-7%	0%	18%	-15%	0.8%
35	COc1ccc(CCN(C)C(=O)C2CCN(Cc3ccccc3)CC2)cc1OC	·	0%	4%	-13%	-16%	-6%[46.1 µM]	1%[46.1 µM]	·
36	C=CCOc1ccc(C(=O)Nc2ccccc2C(=O)N2CCCC2)cc1	·	-7%	-8%	-15%	-1%	-3%	4%	·
37	O=C(c1cc2ccccc2oc1=O)N1CCOCC1	·	0%	?	10%	62%[activator]	14%	4%	·
38	CCOC(=O)Cn1c(S(=O)(=O)Cc2ccc(F)cc2)nc(-c2ccccc2)c1-c1ccccc1	-19%	1%	6%	-7%	-3%	4.1µM*	2.6µM*	4.8%
39	COCC(C)n1c(=O)sc2ccccc2c1=O (stereo not drawn)	·	1%	·	15%	-21%	0%[46.1 µM]	7%	·
40	COC(=O)c1ccc(CN2CCC(n3nccc3NC(=O)C3CCCC3)CC2)cc1	·	0%	-1%	-6%	11%	?	2%	·
41	O=C(NC(=S)N1CCN(c2ccc([N+](=O)[O-])cc2)CC1)c1ccccc1Cl	·	-1%	4%	-2%	?	?	-3%[46.1 µM]	·
42	CCOC(=O)N1CCN(Cc2nc3cc(NC(=O)C(C)C)ccc3n2C(C)C)CC1	-3%	·	·	·	1%	?	-6%[46.1 µM]	0.1%
43	Cc1c(C)n(C(=O)CSc2ncn[nH]2)c2ccccc12	13%	-1%	-72%	0%	0%	-9%	-5%	-1.2%
44	O=C(NCc1n[nH]c(=S)n1-c1ccc(Br)cc1)c1ccc(S(=O)(=O)N2CCCCC2)cc1	·	10%	26%	9%	1%	?	13%[46.1 µM]	·
45	CCN(C(=O)COc1cc(=O)n(CC)c2ccccc12)c1cccc(Cl)c1	20%	-9%	3%	-4%	?	?	-27%	0.3%
46	Cc1ccc(Cl)cc1Nc1nc2ccccc2c2nncn12	11%	·	·	·	-20%	?	-3%[46.1 µM]	-2.8%
47	COC(=O)c1cccc(NC(=O)COC(=O)CSc2nc(C)cc(C)n2)c1	8%	-2%	-4%	-5%	-5%	14%	7%	1.5%
48	Cc1ccc(S(=O)(=O)N2CCN(CC(=O)N/N=C\C(Cl)=C\c3ccccc3)CC2)cc1	0%	-3%	-6%	-6%	?	0%	4%	-10%
49	O=C(CSc1ccc2nnc(CCNC(=O)c3ccccc3)n2n1)NC1CCCC1	·	9%	-17%	3%	-19%	15%	18%	·
50	COc1cccc(-c2nc3ccccc3s2)c1	-3%	-15%	-10%	?	-55%	?	?	-5.6%
51	CCOC(=O)C1=C(COC(=O)COc2ccccc2C#N)NC(=O)NC1C (stereo not drawn)	·	-6%	·	0%	-11%	21%[46.1 µM]	1%	·
52	O=C(NCCc1c[nH]c2ccccc12)/C(=C/c1cccnc1)NC(=O)c1cccs1	·	0%	2%	4%	-11%	5%[46.1 µM]	-1%[46.1 µM]	·
53	COc1ccc2cc1Oc1ccc(cc1)C[C@H]1c3cc(c(OC)cc3CCN1C)Oc1c(OC)c(OC)cc3c1[C@@H](C2)N(C)CC3	-18%&-13%	8%	11%	-8%	0%	·	·	0.4%&-4.2%
54	CCOc1ccc(Nc2c(S(=O)(=O)c3ccc(C)cc3)cnc3ccc(F)cc23)cc1	8%	·	·	·	?	?	·	-3.2%
55	COc1ccc(NC(=O)N2CCN(S(=O)(=O)c3ccc4c(ccn4C)c3)CC2)c(OC)c1	9%	·	·	·	?	·	0%[46.1 µM]	-4.5%
56	COc1ccccc1CCC(=O)Nc1cc(S(=O)(=O)N2CCOCC2)ccc1N1CCCC1	·	5%	·	-25%	-1%	-20%[46.1 µM]	-28%	·
